rRNA inh HTS: inhibitors of bacterial rRNA selective over humanized ribosomes; E. coli WT GFP vs humanized-ribosome RFP mutants, fluorescence, 24 h; stronger effect = lower value; DMSO median 0, no signal -100; GFP signal change (wild-type ribosome), % (concentration not given with the values); hit rate 1.6% among 350,000; AID 720706;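 active = significant combined selectivity score with lowered wild-type GFP, culture density cut under 30%, mutant RFP and density less affected; inactive = any of these conditions unmet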; also: one replicate is shown; some compounds called inactive have numbers as strong as hits
E coli growth: blocks Escherichia coli growth | OD600, 23 h; stronger effect = lower value | OD600 absorbance (no concentration beside the values) | hit rate 0.21% among 330,000 | AID 1053175;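 active = OD600 absorbance below the run mean of sample wells minus 3.6 SD, in any replicate, cut at about 0.56 in these data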;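 also: stock transfer was 300 nL into about 60 µL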
AF4-AF9 inh: blocks AF4 peptide binding to human AF9; hit rate 0.47% among 350,000; inhibition, % at 10 µM; AlphaScreen, biotin-AF4 peptide binding to FLAG-AF9; AID 651704;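 active = every replicate reaching a set inhibition limit, whatever the replicate mean, cut at about 25% in these data; inconclusive = mean inhibition reaches that limit but some replicates miss it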;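 also: 0% = plate neutral control median and 100% = total signal loss; the record names both 10 and 1 µM as test concentration; the first replicate is given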
Target sequence (P42568 whole entry, looked up): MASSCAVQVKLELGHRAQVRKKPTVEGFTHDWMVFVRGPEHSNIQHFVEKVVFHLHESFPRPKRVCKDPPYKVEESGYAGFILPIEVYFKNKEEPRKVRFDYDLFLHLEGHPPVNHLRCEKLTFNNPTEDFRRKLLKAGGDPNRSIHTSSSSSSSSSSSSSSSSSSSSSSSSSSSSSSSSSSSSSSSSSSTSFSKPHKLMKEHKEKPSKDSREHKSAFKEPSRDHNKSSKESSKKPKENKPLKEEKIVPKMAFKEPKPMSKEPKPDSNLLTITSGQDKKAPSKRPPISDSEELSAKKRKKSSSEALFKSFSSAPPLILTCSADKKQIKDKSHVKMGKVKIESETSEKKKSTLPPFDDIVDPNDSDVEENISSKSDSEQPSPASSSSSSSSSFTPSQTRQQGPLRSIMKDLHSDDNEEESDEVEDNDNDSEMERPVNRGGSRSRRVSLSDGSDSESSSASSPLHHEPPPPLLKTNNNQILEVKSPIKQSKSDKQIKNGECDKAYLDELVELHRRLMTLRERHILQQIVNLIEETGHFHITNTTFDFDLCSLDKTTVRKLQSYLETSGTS
Beta apoptosis: blocks beta cell apoptosis | INS-1E cytokine-induced death, ATP luminescence, 48 h; percent of positive-control rescue, neutral wells zero | protection from apoptosis, % (test concentration not listed) | hit rate 0.8% among 300,000 | AID 435005;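 active = all replicates at 75% or more, or half of them and the mean; inconclusive = half reach 75% but not the mean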;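 also: 0% = cytokine-treated negative control wells and 100% = positive control rescue; higher means more ATP so stronger rescue from cytokine killing; wells of about 40 µL received 100 nL stock; the first replicate is given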
T cruzi repl: blocks replication of Trypanosoma cruzi | inhibition, % (no concentration beside the values) | AID 1885 | hit rate 1.4% among 300,000 | T. cruzi beta-gal in NIH3T3, luminescence, 90 h;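 active = mean inhibition across valid replicates above about 55%, limit read from the data; inconclusive = mean below that limit but half or more replicates reach it; inactive = mean below it, under half of replicates reach it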;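 also: signal also drops with host cell toxicity which is not excluded here; 0% = plate median of DMSO wells and 100% = zero luminescence signal; higher percent means less beta-gal luminescence so fewer parasites; stock transfer was 50 nL into about 50 µL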
UCH37 inh: blocks the human deubiquitinase UCH37 | purified proteasome/UCH37, Ub-AMC cleavage fluorescence | inhibition, % (test concentration not listed) | hit rate 0.33% among 330,000;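 active = mean of two replicates above 20%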;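 also: 0% = compound-free wells with enzyme and 100% = wells lacking proteasome; stock transfer was 100 nL into about 20 µL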
Target sequence (Q9Y5K5 whole entry, looked up): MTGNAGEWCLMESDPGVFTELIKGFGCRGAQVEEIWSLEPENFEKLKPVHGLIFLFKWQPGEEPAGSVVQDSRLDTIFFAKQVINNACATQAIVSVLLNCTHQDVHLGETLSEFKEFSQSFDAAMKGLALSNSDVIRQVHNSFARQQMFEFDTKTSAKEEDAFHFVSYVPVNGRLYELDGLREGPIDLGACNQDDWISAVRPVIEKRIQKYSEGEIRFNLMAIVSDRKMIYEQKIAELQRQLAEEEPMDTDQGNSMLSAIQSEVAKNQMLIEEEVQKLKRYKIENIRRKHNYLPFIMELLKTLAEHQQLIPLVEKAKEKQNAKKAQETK
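System: Proteasome-associated human UCH37 deubiquitinase; Input: 0.15 nM proteasome in added enzyme buffer; Also added: Ub-AMC substrate from 1 µM stock; Incubation: 30 min compound-proteasome preincubation then 25 min substrate reaction, room temperature; Detection: fluorescence, ex 355 nm, em 460 nm; Read-out: % inhibition of Ub-AMC cleavage fluorescence; Benchmarks: no-proteasome and no-compound wells.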
Bfl-1 A1 inh: inhibitors of the anti-apoptotic protein A1, read as caspase activation | AID 2462 | caspase activation, % (no concentration beside the values) | hit rate 0.066% among 330,000 | MEF A1-2A-BIM cells, Caspase-Glo 3/7 luminescence, 3 h; percent of clofoctol response, vehicle zero;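 active = over half of replicate activation scores above 10%, or exactly half above 10 with the replicate mean above 10; inconclusive = replicate mean below 10 yet half the replicates above 10; inactive = over half of replicates below 10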;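 also: wells of about 30 µL received 50 nL stock; many hits fall short of the cut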
FGF22 binding: shifts melting point of recombinant human FGF22; hit rate 1.5% among 340,000; calls only at 9.99 µM; recombinant FGF22 thermal shift, SYPRO orange fluorescence; percent of sucrose octasulfate shift, DMSO zero; Q9HCT0; AID 651658;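 active = melting point raised past a set limit in the mean and every replicate; inconclusive = no clear call; three in four hits are not shown here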
Target sequence (Q9HCT0 whole entry, looked up): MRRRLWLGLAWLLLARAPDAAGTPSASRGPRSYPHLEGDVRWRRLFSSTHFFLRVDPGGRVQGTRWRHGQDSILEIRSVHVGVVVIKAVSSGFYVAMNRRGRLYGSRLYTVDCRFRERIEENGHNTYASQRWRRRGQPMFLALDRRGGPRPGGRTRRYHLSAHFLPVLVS
rRNA inh HTS OD600: also measured in rRNA inh HTS; calls as there; OD600 change, %; measured here: OD600 growth;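 optical density of the mix in the first replicate; 0 = DMSO median and -100 = no signal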
rRNA inh HTS RFP: further read-out of rRNA inh HTS, marked with its call; RFP signal change, %; measured here: RFP humanized mutant strains;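 first replicate; 0 = DMSO median and -100 = no signal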
* marks the source's active call; other numbers are inactive results; i = inactive; ? = inconclusive; . = not tested or not shown; + = active, no number. This is a subset (hit frequency here may not be typical).

SMILES	rRNA inh HTS	rRNA inh HTS OD600	rRNA inh HTS RFP	E coli growth	AF4-AF9 inh	Beta apoptosis	T cruzi repl	UCH37 inh	Bfl-1 A1 inh	FGF22 binding
O=C(Cc1ccccc1)N1N=C(c2ccncc2)CC1(O)C(F)(F)F (centres undefined)	7.9	-1.1	2.0	0.674	0.5	1.8	-12.9	1.9	0.4	i
C[n+]1cccc(C(=O)N/N=C/c2ccc3c(c2)OCO3)c1	6.6	2.4	-3.3	.	0.0	1.2	6.0	.	-0.4	i
CN1CCN(C(=O)c2cccn(Cc3cccc(Cl)c3)c2=O)CC1	9.9	12.2	0.3	0.671	-3.1	-2.3	-1.7	4.5	-2.0	i
CCOC(=O)Cc1csc(NC(=O)CCSc2ccccc2)n1	-20.7*	-16.1*	-0.3*	0.674	-1.8	-4.2	-5.1	-0.2	-1.2	+
Cc1ccc(O)c(/C=N/NC(=O)c2[nH]ncc2Br)c1	3.6	9.3	-0.6	.	-8.5	84.3*	-13.5	.	-6.1	i
CSc1ccccc1NC(=O)c1cnc2sc(C)cn2c1=O	6.0	5.4	-1.9	0.658	-21.2	.	-9.8	6.7	-3.8	i
Cc1cc(C(=O)N/N=C/c2ccc([N+](=O)[O-])s2)c2ccccc2n1	4.1	3.9	0.4	.	-0.6	-1.1	61.3*	.	-0.2	i
Cc1c(C(N)=O)sc2ncn(CC(=O)NCCc3ccccc3)c(=O)c12	6.8	8.6	-0.1	0.628	-1.8	5.7	-13.1	1.0	0.6	i
Cc1cccc(C(=O)NCC(=O)OC(C)C(=O)Nc2ccc(Cl)cn2)c1 (centres undefined)	6.0	6.2	3.1	0.681	-1.1	.	-2.2	-0.3	1.0	i
CCOc1ccc(NC(=O)COc2ccc3c(c2)OCO3)cc1	-4.9	-5.4	-2.6	0.626	-2.6	2.7	14.1	4.0	0.3	i
O=C1NC(=S)N/C1=C/c1cc([N+](=O)[O-])ccc1O	.	.	.	0.69	.	.	10.8	19.9	0.4	.
O=C(Cc1ccccc1)N1CCNCC1	9.0	3.5	0.3	0.642	0.8	-4.7	-15.0	0.2	-1.3	i
O=C(O)c1ccc(NS(=O)(=O)c2cccc(C(=O)Nc3ccc([N+](=O)[O-])cc3)c2)cc1	3.2	1.9	-1.2	0.692	-4.9	-1.0	-1.4	7.4	0.6	i
COc1cccc(C(C(=O)NC(C)(C)C)N(Cc2ccc(F)cc2)C(=O)CCC(=O)Nc2cc(C)on2)c1OC (centres undefined)	-2.6	-17.8	1.4	0.661	1.4	-9.1	.	0.7	0.0	i
C(=N\n1cnnc1)/C1CCCCC1	16.5	18.5	2.4	.	.	-7.3	1.0	.	-1.3	.
O=C(C[C@@H]1C/C=C\CCC(=O)O[C@H](c2ccccc2)CNC1=O)N[C@H](CO)Cc1ccccc1	8.3	14.9	21.9	.	-69.3	-5.9	.	1.2	0.4	i
COc1ccccc1C1C(C(=O)c2ccc(C)o2)=C(O)C(=O)N1c1cc(C)on1 (centres undefined)	-0.4	1.0	-2.6	0.647	-8.3	.	-9.5	5.7	0.4	i
COc1ccc(CC(=O)NCC(=O)N/N=C/c2cc(Br)ccc2OC)cc1	10.1	28.5	-0.8	.	2.9	10.6	10.1	.	-0.2	i
Cc1ccsc1CNC1C2CC3CC(C2)CC1C3 (centres undefined)	5.1	7.9	-7.0	0.678	1.8	4.4	10.1	1.6	-0.2	i
O=C(CCCN1C(=O)/C(=C/c2ccccc2Cl)SC1=S)NNC(=O)c1ccncc1	8.6	3.1	6.3	0.654	-4.8	-8.3	2.5	5.8	-1.1	i
CCCCN(C(=O)CSc1nnc(-c2ccc(Cl)cc2)o1)c1c(N)n(CC(C)C)c(=O)[nH]c1=O	8.0	7.3	-2.4	0.64	-0.7	1.2	.	2.7	-0.1	i
CCOC(=O)C1=C(CS(=O)(=O)c2ccc(F)cc2)NC(=O)NC1c1ccc(O)c(O)c1 (centres undefined)	-0.3	7.1	0.4	0.703	0.2	-2.7	2.7	-0.4	-0.3	i
Cc1ccnc(NC(=O)c2ccco2)n1	18.7	18.6	0.9	0.712	-0.9	-1.6	0.2	4.9	0.0	i
Cc1nc2ccc(S(=O)(=O)NCC(=O)N3CCC(N4CCCCC4)CC3)cc2s1	.	.	.	0.75	.	0.2	-6.7	-5.6	0.8	.
COC(=O)c1cc(=O)n(Cc2cccs2)c(=Nc2ccc(F)cc2)s1	0.3	-4.3	-2.6	.	9.2	3.9	49.0	.	-0.1	i
CCCC(C)NC(=O)C1CC(=O)N(CCc2ccc(F)cc2)C1 (centres undefined)	14.5	13.4	-0.5	0.695	-2.4	-5.0	4.3	0.2	0.2	i
O=C(COC(=O)/C=C/c1ccc(OC(F)F)cc1)NC1CCCCC1	-1.1	7.2	-4.7	0.701	-0.4	1.8	-1.9	2.4	-0.5	i
COCCn1c(Cc2ccccc2)nnc1SCC(=O)NC1CCCCC1	.	.	.	0.604	-1.8	1.1	5.0	1.7	0.8	i
COCCCN=C(c1ccco1)n1c(=S)nc(-c2ccco2)n(CCCOC)c1=S	8.0	6.5	-8.3	0.633	7.8	-3.5	-8.7	7.7	-0.2	i
Cc1ccc(/C(N)=N/OC(=O)c2ccc3c(c2)OCO3)cc1	7.1	11.8	3.1	0.702	-7.9	0.5	9.6	-20.7	-5.5	i
Cc1nnc(SCC(=O)Nc2nc(C(C)(C)C)cs2)s1	.	.	.	0.735	.	-6.3	0.5	0.4	-1.0	.
CC(C)C[C@H](NC(=O)c1[nH]cnc1C(=O)Nc1ccc(CNC(=O)OC(C)(C)C)cc1)C(=O)OCc1ccccc1	4.3	4.1	-7.9	.	5.1	-6.5	33.4	1.0	-0.4	i
CC(C)Cc1nc2n[nH]c(N)c2c2c1CCCC2	.	.	.	0.691	.	-2.9	-3.4	3.4	0.8	.
O=C(O)C(F)=C(c1ccccc1)c1ccccc1	7.2	-6.1	1.6	0.64	-8.7	-13.3	.	6.1	-0.9	i
Cc1ccc(-c2ccc(CCC(=O)O)n2-c2ccc(O)cc2)cc1	.	.	.	0.664	.	-2.7	1.0	-2.9	-0.9	.
O=C(CCCO)N/N=C/c1ccccc1[N+](=O)[O-]	11.4	1.4	-2.1	.	0.4	1.2	-3.8	.	-0.7	i
NS(=O)(=O)c1ccc(CNC(=O)c2cc(=O)c3cc(Cl)ccc3o2)cc1	10.9	1.9	5.6	0.708	1.1	3.6	13.1	5.1	0.6	i
COc1ccc(CNC(=O)c2cnn3c(C(F)F)cc(C)nc23)cc1	.	.	.	0.695	.	-6.0	6.4	1.2	-2.4	.
COCc1c(C(=O)Nc2cccc(S(=O)(=O)N3CCCCC3)c2)oc2ccccc12	-3.1	-4.6	-0.4	0.682	.	8.9	.	-0.1	-0.5	.
CCC1(CC)C(=O)N(C)C(=O)NC1=Nc1ccccc1	.	.	.	0.707	.	2.0	-13.6	3.8	-0.2	.
COC(=O)c1cc2ccccc2c([N+](=O)[O-])c1O	-10.8	-14.2	4.1	0.699	-3.8	.	.	5.5	.	i
Cc1cc(Br)ccc1-n1[nH]c(C)c(C=Nc2cccc3nsnc23)c1=O	18.9	9.3	4.0	0.703	-1.9	0.8	-9.0	7.2	1.9	i
CC(=O)N1CCN(S(=O)(=O)c2ccc(S(=O)(=O)N3CCCC(C)C3)cc2)CC1 (centres undefined)	8.6	9.4	0.1	0.704	-15.6	-0.6	4.8	1.3	-0.1	i
Cn1c(=O)[nH]c(=O)c2c1nc(N1CCCCCC1)n2CCCSc1nc2ccccc2o1	.	.	.	0.684	.	1.8	39.8	6.5	0.0	.
Cc1cc(C)c(S(=O)(=O)NCCc2ccccc2)c(C)c1	-51.0	-77.1	-13.6	0.673	-2.3	-8.1	10.3	4.0	-0.1	i
O=C(CN1CCN(c2ncccn2)CC1)Nc1ccccc1C(F)(F)F	4.6	-5.9	2.6	0.706	-1.6	-4.3	-12.9	-0.4	1.0	i
CCCCC1C2C(=O)N(c3ccc(C)cc3)C(=O)C2ON1c1ccccc1 (centres undefined)	-10.1	-5.1	-2.0	0.626	-4.7	.	-5.8	5.6	1.9	i
CCOC(=O)c1c(NC(=O)CSc2nnc(CNc3ccc(F)cc3)o2)sc(C)c1C	.	.	.	0.709	.	1.1	0.4	2.2	-0.9	.
Cc1cc(C)nc(Sc2ncnc(N)c2[N+](=O)[O-])n1	17.9	15.8	3.6	0.724	-2.1	-31.6	21.0	13.0	0.3	i
CCOC(=O)Cn1c(=O)oc2cc(S(=O)(=O)N3CCCC(C(=O)OCC)C3)ccc21 (centres undefined)	5.8	6.7	2.0	0.75	-0.3	-2.2	-7.6	3.9	0.3	i
COC(=O)c1ccc(-c2noc(CN(C)CC3CCCCO3)n2)cc1 (centres undefined)	-2.7	-8.7	-3.1	0.68	-23.4	-6.5	-0.7	4.9	-0.4	i
C=CCOC(=O)C1=C[C@@H](c2ccc(C(F)(F)F)cc2)C[C@@H](OCCCCO)O1	.	.	.	.	.	-9.5	0.5	21.4*	-1.6	.
COc1ccc(CN2C(=O)NC3(CCCCC3)C2=O)cc1F	.	.	.	0.671	.	-1.2	6.2	3.8	0.3	.
N/C(=N\OC(=O)COc1ccc(Cl)cc1Cl)c1ccncc1	-29.5	-40.3	-7.3	0.707	-1.7	.	.	6.6	.	i
Cc1ccc(C2OCC(C)([N+](=O)[O-])CO2)cc1 (centres undefined)	3.0	11.4	-1.2	0.683	-1.4	.	.	1.6	.	i
O=C(CC(C(=O)O)c1ccc(F)cc1)c1ccc(Cl)cc1 (centres undefined)	1.0	1.8	3.3	0.688	-1.6	-6.0	3.3	0.5	0.0	i
O=C(NCC1CCCCC1)c1cc(S(=O)(=O)N2CCOCC2)ccc1F	9.9	21.1	-1.9	0.662	?	-13.9	.	3.3	0.6	i
CCOC(=O)C1=C(C)NC(=O)NC1	.	.	.	0.688	.	.	-9.4	3.5	2.0	.
COc1ccc(N2CCN(C(c3cc(OC)ccc3OC)c3nnnn3Cc3ccco3)CC2)cc1 (centres undefined)	.	.	.	0.729	.	-0.8	6.1	2.3	0.2	.
Cc1ccc(C(=O)N2CCSCC2)cc1	8.4	-0.2	-5.6	0.739	-10.2	-5.3	-3.9	5.8	0.7	i
CCOc1ccccc1NC(=O)CN1C(=O)CSC(C)C1=O (centres undefined)	-1.2	7.3	-4.0	0.707	0.2	0.0	-10.1	3.6	3.2	i
CCCCn1c(CCC(=O)O)nc2cc(S(=O)(=O)N(C)C)ccc21	12.3	2.6	-0.4	0.687	2.2	-2.2	-6.8	5.0	-0.1	i
O=C(Nc1ncc(Cc2cccc(Cl)c2Cl)s1)C1CCCO1 (centres undefined)	-4.7	3.6	4.9	0.686	-28.2	0.4	6.2	2.2	-0.2	i
